Ab BasE inh = BasE siderophore enzyme inhibitors, primary screen, biochemical, Acinetobacter baumannii ATCC 17978, fluorescence polarization; purified BasE, fluorescence polarization binding displacement; inhibition, % (concentration not given with the values); actives 0.1% (n = 84,000);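 active means both replicates above 25% with normal brightness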;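 further: 0% = negative plate control signal and 100% = positive plate control signal; stock transfer was 100 nL into about 30 µL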
LANA-nucl inh = inhibitors of KSHV LANA-nucleosome binding, primary screen, biochemical, fluorescence polarization, FITC-LANA1-23, chicken nucleosomes; FITC-LANA1-23 / chicken nucleosome fluorescence polarization; hits give low values; z-score (no concentration beside the values); actives 0.3% (n = 51,000);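 active means both repeat wells score below -2 in polarization z-score versus plate sample wells, excluding overly bright wells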;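 further: 100 nL library stock added to about 30 µL; numbers are from one replicate; some results filed as inactive read as strong as hits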
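Assay system: FITC-LANA peptide and chicken nucleosomes; input: 240 nM purified chicken nucleosomes (480 nM peptide binding sites), final; also added: 50 nM FITC-LANA1-23 probe; medium: TEN-BT buffer, pH 7.5; doses: pin-transferred compound, 100 nL; times: 10–45 min, room temperature; technique: fluorescence polarization; replication: duplicates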
Starred values were filed as active, the others as inactive; · = not tested or not shown. The list is partial, so the mix of outcomes need not match the whole.

no.	canonical_smiles	Ab BasE inh	LANA-nucl inh
1	CCN(C(=O)C1CCN(S(=O)(=O)c2cccc3nsnc23)CC1)c1ccc(C)c(C)c1	3.3	0.013
2	COc1ccc(Cn2nnnc2C(c2ccccc2F)N(Cc2ccco2)CC2CCCO2)cc1 (stereo unspecified)	-2.8	-0.13
3	O=C(CSCCN1C(=O)c2ccccc2C1=O)NCc1ccc(F)cc1	0.4	·
4	O=C(NC1CCCC1)c1ccc(Br)s1	1.4	-0.3
5	CCOC(=O)c1c(NC(=O)COC(=O)Cn2cnc3ccccc32)sc2c1CCC(C)C2 (stereo unspecified)	2.2	·
6	O=c1[nH]ncc(NCCN2CCOCC2)c1Cl	-2.4	-1.2
7	O=c1[nH]cc(S(=O)(=O)N2CCc3ccccc32)c(=O)[nH]1	-2.0	-0.18
8	O=C1CN(C(=O)CSc2nnc(Nc3ccccc3F)s2)c2ccccc2N1	-0.3	·
9	O=C1N/C(=C/c2ccsc2)C(=O)N1Cc1ccccc1F	3.0	0.71
10	CCCn1c(NC(=O)Nc2ccccc2)c2ccccc2nc1=O	1.5	-0.39
11	CCc1ccc(NS(=O)(=O)c2ccc3[nH]cc(C(=O)NCCOC)c(=O)c3c2)cc1	-7.5	0.018
12	COc1cc2c(cc1NC(=O)C(C)OC(=O)c1n[nH]c(=O)c3ccccc13)oc1ccccc12 (stereo unspecified)	-2.5	·
13	S=c1nc[nH]c2c1nnn2Cc1ccc(Cl)cc1	1.5	-0.21
14	CN1CCN(CC(=O)Nc2ccc(C(=O)NCC3CCCO3)cc2)CC1 (stereo unspecified)	-2.2	-0.46
15	CCn1cnc2cc(NCc3cccc(OC)c3)ccc21	9.1	0.59
16	Cc1c(CC(N)=O)c(=O)oc2cc(O)c(Cl)cc12	3.0	-0.56
17	CC1=C(C(=O)Nc2ccccc2)C(c2ccccc2)n2c(s/c(=C/c3ccc(C)o3)c2=O)=N1 (stereo unspecified)	2.4	-0.65
18	CC(=O)NC12CC3CC(C1)CC(C(=O)OCC(=O)c1ccc4c(c1)OCCO4)(C3)C2	-2.2	·
19	Cc1c(-c2ccn[nH]2)cnn1-c1c(Cl)cc(Cl)cc1Cl	-0.8	1.7
20	Cc1occc1C(=O)Nc1cccc(/C=C/C(=O)O)c1	-2.0	0.1
21	N=c1c(S(=O)(=O)c2ccccc2)cc2c(=O)n3ccccc3nc2n1Cc1ccco1	2.5	·
22	Cc1ccc(C)c(NC(=O)CN(C)C(=O)C2=NNC(=O)CC2)c1	2.0	·
23	Cc1n[nH]c(=S)n1CC(=O)n1c2c(c3ccccc31)CCCC2	0.7	-0.44
24	COC(=O)CSCc1csc(-c2ccc(OC)c(OC)c2)n1	-1.2	·
25	Cc1ccc2[nH]c(=O)c(CN(CC3CCCO3)C(=S)NCCCN3CCOCC3)cc2c1 (stereo unspecified)	-3.2	2.6
26	Cc1ccc(Cn2nnc3c(=O)[nH]c(C4CCN(S(=O)(=O)c5ccc(S(=O)(=O)NC6CC6)cc5)CC4)nc32)cc1	-6.0	1.4
27	CCn1nc(C)c(Oc2ccccc2O)c1C	0.0	-0.12
28	CCOC(=O)c1ccc2nc(C(F)(F)F)cc(N3CC(C)CC(C)C3)c2c1 (stereo unspecified)	-0.1	0.21
29	CO[C@H]1C[C@@H]2CC[C@@H](C)[C@@](O)(O2)C(=O)C(=O)N2CCCC[C@H]2C(=O)O[C@H]([C@H](C)C[C@@H]2CC[C@@H](O)[C@H](OC)C2)CC(=O)[C@H](C)/C=C(\C)[C@@H](O)[C@@H](OC)C(=O)[C@H](C)C[C@H](C)/C=C/C=C/C=C/1C	·	1
30	COC(=O)c1ccc(COC(=O)c2ccccc2OC)cc1	2.7	-1.2
31	CCC(=O)N1CCN(c2ccc(NC(=S)NC(=O)c3cc4ccccc4o3)cc2Cl)CC1	2.1	-1.9
32	COC(=O)c1ccc(COC(=O)c2ccc(O)cc2)o1	3.5	·
33	CC1CCN(C(=O)CSc2ncnc3c2nnn3Cc2ccc(F)cc2)CC1	-0.6	0.97
34	N#Cc1c2c(c(NCCN3CCOCC3)n3c1nc1ccccc13)CCCC2	0.3	0.78
35	NCC(c1ccc(F)cc1)N1CCOCC1 (stereo unspecified)	4.4	0.33
36	COc1nc(N(C)C)nc(N(C#N)S(=O)(=O)c2ccc(C)cc2)n1	1.1	0.46
37	CC(C)(C)OC(=O)N1Cc2[nH]cnc2CC1C(=O)O (stereo unspecified)	0.2	0.75
38	C/C(=N\NC(=O)c1nc(Cl)c(Cl)c(N)c1Cl)c1cc(O)ccc1O	3.9	·
39	O=C(NCc1ccco1)c1c2c(nc3ccccc13)-c1ccccc1CC2	0.9	0.0045
40	O=C(Cn1cncn1)N/N=C/c1ccc(O)cc1O	3.0	·
41	COc1ccc(-c2oc(NC(=O)COC(=O)C(C)(C)C)c(C#N)c2-c2ccc(OC)cc2)cc1	1.2	·
42	NC(=O)C1CCN(C(=O)Nc2csc3ccccc23)CC1	·	0.24
43	Cc1nn(-c2ccccc2)c(N2CCCC2)c1C=Nc1ccc2c(c1)OCO2	1.8	·
44	Cc1ccc(N2CC(NC(=O)N3CCC(C(N)=O)CC3)CC2=O)cc1 (stereo unspecified)	2.1	-2.2
45	N=C(N)N1CCN(CC(O)COc2ccccc2)CC1 (stereo unspecified)	1.4	-0.83
46	CCSC1=C(C#N)C(C)(C)C(C#N)C(=O)N1 (stereo unspecified)	1.2	·
47	CCOC(=O)N1CCN(C(=O)CCc2ccc(S(=O)(=O)NC3CCCCC3)cc2)CC1	-1.8	0.37
48	Cc1cc(COC(=O)c2cc(S(=O)(=O)NC3CC3)ccc2Br)no1	-0.3	·
49	COc1ccc(NC(=O)Cn2nnc(-c3ccc(S(C)(=O)=O)cc3)n2)cc1	0.3	-0.51
50	O=C(c1ccc(S(=O)(=O)NC2CCCc3ccccc32)s1)N1CCCC1 (stereo unspecified)	-4.1	0.07

Quoted from the listing:
Under LANA-nucl inh, compound 36 reads 0.46
Under LANA-nucl inh, compound 47 reads 0.37
Under Ab BasE inh, compound 40 reads 3.0

The list continues:
no.	canonical_smiles	Ab BasE inh	LANA-nucl inh
51	O=c1cc(CSc2nnc3sc4ccccc4n23)c2ccc(Br)cc2o1	-1.7	·
52	COc1ccc(-c2[nH]ncc2CN2CCN(C)CC2)cc1	1.2	0.32
53	S=C(SCc1cn2cccnc2n1)N1CCCC1	-0.7	1
54	O=C(NC(CO)c1ccccc1)c1ccc(Cl)cc1 (stereo unspecified)	·	2.2
55	CCNc1ncnc2c1nnn2CC	-0.8	-0.047
56	Cn1/c(=N/N)sc2ccccc21	0.2	-0.52
57	CCCCCC1CC(=O)N(Cc2ccccc2)C(=O)N1 (stereo unspecified)	-1.2	0.12
58	COc1ccc2cc3cc(C(=O)N4CCN(Cc5ccccc5)CC4)oc3nc2c1	-2.4	-0.81
59	N#C/C(=C(/O)c1ccco1)c1ccccn1	1.1	·
60	CC(C)C(=O)OCC(=O)Nc1ccccc1C(=O)Nc1ccc2c(c1)OCO2	-1.0	·
61	CCOC(=O)N1CCC(N2CC34C=CC(O3)C(C(=O)Nc3ccc(C)cc3)C4C2=O)CC1 (stereo unspecified)	1.9	1.2
62	Cn1cc(-c2cc(C(=O)O)on2)cn1	-0.7	0.43
63	O=C(CSc1nc(O)cc(=O)[nH]1)N1c2ccccc2CCc2ccccc21	-3.4	0.73
64	O=C(O)c1ccccc1C(=O)c1ccc(-c2ccccc2)cc1	1.1	·
65	O=S(=O)(c1ccc2c(c1)CCCC2)N1CCNCC1	-4.5	·
66	CCNC(=O)c1ccc(-c2nc(CS(=O)c3ccc(C)cc3)c(C)o2)cc1 (stereo unspecified)	-0.1	-2.1
67	CCCCN(Cc1ccco1)C(=O)Cn1ncc2c(=O)oc3ccc(C)cc3c21	1.8	-0.7
68	CN(C)C(=O)CSc1nc(-c2ccccc2)cs1	-1.1	-0.67
69	Cc1occc1C(=O)NN	0.8	·
70	COc1ccccc1NC(=O)c1cccs1	-2.8	0.062
71	S=c1[nH]c2c(s1)C1c3ccccc3OCC1CS2 (stereo unspecified)	2.7	-0.37
72	Cc1cc(C(F)(F)F)c2c(=O)[nH]c(=O)n(Cc3ccccc3)c2n1	4.5	·
73	CC(C)(C)c1ccc(C(=O)NC(=S)Nn2cnnc2)cc1	-0.2	·
74	CC1=NN(c2ccccc2)C(C2=C(C)CCCC2(C)C)C1 (stereo unspecified)	1.7	·
75	COC(=O)Cn1c(=NC(=O)C(C)(C)C)sc2cc(S(N)(=O)=O)ccc21	-0.5	-0.085
76	COC(=O)c1sccc1NC(=O)Nc1cn(C)c(=O)c2ccccc12	2.1	-0.95
77	Cc1nc(CC(=O)Nc2cccc(Cl)c2)cs1	1.0	-0.42
78	CC(=O)Nc1ccccc1SCc1cc(=O)n2ccsc2n1	1.3	0.78
79	O=C(CSc1nccc(=O)[nH]1)NCc1ccccc1	-0.4	-1.5
80	CCNS(=O)(=O)c1ccc(NC(=O)Nc2cccc(C(F)(F)F)c2)cc1	-0.3	-0.1
81	O=C(Cn1cnc2ccccc2c1=O)N1CCc2ccccc2C1	-3.2	·
82	Nc1c(-c2ccccc2)nc2ccccn12	1.6	·
83	Cc1nc2c(C)cccc2c2c1COC2	-4.9	1.4
84	CN1/C(=C(/O)c2ccccc2)C(=O)c2ccccc2S1(=O)=O	-0.4	·
85	COc1ccc(/C=N/N=C(N)N)cc1	-2.6	-0.04
86	Cn1c(=NC(=O)c2cc(-c3ccccc3)nc3ccccc23)sc2cc(S(C)(=O)=O)ccc21	1.4	·
87	CC(C)Oc1ccc(C(CC(=O)O)C(C)C)cc1 (stereo unspecified)	0.1	0.13
88	Cn1c(SCC(=O)NCC2CCCO2)ncc(C(=O)Nc2ccc(F)cc2)c1=O (stereo unspecified)	-1.2	1
89	O=C(O)Cc1ccc(OC(F)F)cc1	1.4	·
90	Cc1cc(C(=O)N/N=C/N(C)C)nn1-c1c(Cl)cc(Cl)cc1Cl	-2.1	-0.22
91	CN(CC1CCCO1)S(=O)(=O)c1ccc(C(=O)N2CCOCC2)cc1 (stereo unspecified)	0.5	-1.3
92	S=C(N=P(c1ccccc1)(N1CCOCC1)N1CCOCC1)NCc1cn2ccsc2n1	0.1	·
93	O=C(NCCN1CCNC1=O)c1ccc(OC(F)(F)F)cc1	0.3	0.8
94	CC(C)(O)c1ccc(-c2ccccc2)cc1	-0.9	-0.63
95	Cc1ccc(Nc2ncccc2C(=O)NC2CCCCC2)cc1	0.4	-0.62
96	O=C(CS(=O)(=O)c1cn(Cc2ccc(Cl)cc2)c2ccccc12)N1CCCCC1	-2.5	2.4
97	Cc1ccc(C)c2[nH]c(=O)c(C(c3nnnn3Cc3ccccc3)N3CCN(C)CC3)cc12 (stereo unspecified)	-1.9	0.78
98	CCn1c(SC(C)C(N)=O)nnc1-c1cccs1 (stereo unspecified)	-1.4	·
99	Clc1ccc(-c2cnc3n2CCC3)cc1Cl	-7.2	·
100	CCC(CC)c1nnc(NC(=O)c2c(-c3ccccc3)noc2C)s1	1.0	-0.31

Structural class: those above containing a cyano group
no.	canonical_smiles	Ab BasE inh	LANA-nucl inh
34	N#Cc1c2c(c(NCCN3CCOCC3)n3c1nc1ccccc13)CCCC2	0.3	0.78
36	COc1nc(N(C)C)nc(N(C#N)S(=O)(=O)c2ccc(C)cc2)n1	1.1	0.46
41	COc1ccc(-c2oc(NC(=O)COC(=O)C(C)(C)C)c(C#N)c2-c2ccc(OC)cc2)cc1	1.2	·
46	CCSC1=C(C#N)C(C)(C)C(C#N)C(=O)N1 (stereo unspecified)	1.2	·
59	N#C/C(=C(/O)c1ccco1)c1ccccn1	1.1	·

(more compounds)
no.	canonical_smiles	Ab BasE inh	LANA-nucl inh
101	CCC(=O)N1CCc2cc(Br)cc(S(=O)(=O)CCC(=O)NCC3COc4ccccc4O3)c21 (stereo unspecified)	0.6	-0.33
102	COc1ccc(-c2cc(C3CC3)[nH]c(=S)c2C#N)cc1	0.1	-0.24
103	CC(C)N(C)C1CCN(C(=S)Nc2ccccc2Cl)CC1	1.8	-0.42
104	CN(C1CCCCC1)S(=O)(=O)c1ccccc1N=Cc1c(O)[nH]c(=O)[nH]c1=O	5.1	·
105	Cc1ccc(-c2cc(C(F)F)n3ncc(C(=O)Nc4cn(C)nc4C)c3n2)cc1	0.5	-0.12
106	COc1ccc(S(=O)(=O)N2CCCCCC2)cc1C(=O)N(Cc1nnc(-c2ccccc2Cl)o1)C(C)C	-2.2	·
107	COc1ccc(CN2C(=S)N(c3ccccc3)C(=O)C2CC(=O)Nc2ccccc2)cc1 (stereo unspecified)	0.4	·

Compound profiles (already shown).
`COc1ccc(CN2C(=S)N(c3ccccc3)C(=O)C2CC(=O)Nc2ccccc2)cc1` (stereo unspecified) is listed as Ab BasE inh: 0.4; LANA-nucl inh: ·
`COc1ccc(S(=O)(=O)N2CCCCCC2)cc1C(=O)N(Cc1nnc(-c2ccccc2Cl)o1)C(C)C` is listed as Ab BasE inh: -2.2; LANA-nucl inh: ·
